# Screens as filed in PubChem BioAssay.
# Vaccinia stage: blocks a specific stage of Vaccinia orthopoxvirus infection, primary screen, cell-based, single point. Vaccinia-infected cells, mCherry/Venus stage reporter fluorescence; stronger effect = lower value; some inactives read as strong as hits. activity change (mCherry), % (no concentration beside the values). 89,000 compounds, 0.01% hits;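 active means mCherry past -33% and 40 or more points under the early reporter, replicates agreeing; inconclusive means past -33% without that gap or agreement; tested in A549 cells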;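 further: scaled between vehicle wells and reference inhibitor wells; 23 nL library stock went into each well; one replicate is shown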
# Vaccinia stage Venus: recorded beside Vaccinia stage, whose call it bears; activity change (Venus), %; measured here: Venus reporter, other viral stage;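 negative = less Venus signal; first of two replicates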
# Numbers without * were called inactive; ? = inconclusive; . = no result given. A portion of the library; count on the stated rates, not on these rows.
SMILES,Vaccinia stage,Vaccinia stage Venus
O=C(O)C[C@@H]1C[C@@H]2c3cc(NC(=O)NC4CCCC4)ccc3O[C@@H]2[C@H](CO)O1,6,2
N#Cc1cccc(-c2ccc(C3[C@@H]4CN(C(=O)C5CCOCC5)C[C@H]3N4)cc2)c1 (stereo partly specified),-3,-2
C[C@@H]1CN([C@H](C)CO)S(=O)(=O)c2ccc(-c3cncnc3)cc2O[C@@H]1CN(C)C(=O)c1cccc(F)c1,9,11
O=C(C[C@@H]1CC[C@H](NC(=O)Nc2ccc(C(F)(F)F)cc2)[C@H](CO)O1)NCc1cc(F)cc(F)c1,?,.
CN(C)C(=O)[C@@H]1[C@@H](CO)[C@@H]2Cn3c(ccc(-c4ccccc4)c3=O)[C@H]1N2C(=O)C1CCCC1,28,17
C[C@H](CO)N1C[C@H](C)[C@@H](CN(C)C(=O)Nc2ccc(C(F)(F)F)cc2)Oc2c(NC(=O)c3nc4ccccc4s3)cccc2C1=O,-17,-14
COc1cccc(C#Cc2cnc3c(c2)C(=O)N([C@H](C)CO)C[C@@H](C)[C@@H](CN(C)C(=O)C2CCOCC2)O3)c1,-1,2
CN(C)CC(=O)N[C@@H]1CC[C@H](CCNS(=O)(=O)c2ccccc2)O[C@@H]1CO,-7,-8
COC(=O)[C@@H]1[C@@H](CO)[C@@H]2Cn3c(cccc3=O)[C@@H]2N1CC1CCCC1,2,5
N#C[C@@H]1[C@H](c2ccccc2)[C@H](CO)N1C(=O)Nc1cccc(F)c1,?,.
Cc1ccccc1S(=O)(=O)N[C@@H]1CC[C@@H](CCn2cc(-c3ccc(F)cc3)nn2)O[C@@H]1CO,-23,-17
CC(C)NC(=O)Nc1ccc2c(c1)C(=O)N([C@H](C)CO)C[C@@H](C)[C@H](CN(C)Cc1ccc(Cl)c(Cl)c1)OCCCC[C@H](C)O2,?,.
C[C@@H]1CN([C@H](C)CO)C(=O)c2cc(-c3cccc(C#N)c3)cnc2O[C@H]1CN(C)C,17,8
Cc1noc(C)c1S(=O)(=O)Nc1ccc2c(c1)C(=O)N([C@H](C)CO)C[C@H](C)[C@@H](CN(C)C(=O)c1ccccc1)OCCCC[C@H](C)O2,38,10
C[C@@H]1CN([C@@H](C)CO)C(=O)Cc2cc(NC(=O)CCC(F)(F)F)ccc2O[C@H]1CN(C)Cc1ccccc1,-25,-19
C/C=C/c1ccc([C@H]2[C@@H](CO)N(CCC(F)(F)F)C23CN(C(=O)CC)C3)cc1,-5,2
CO[C@@H]1CN(C)C(=O)c2ccc(NC(=O)c3nc4ccccc4s3)cc2OC[C@@H](C)N(Cc2ccncc2)C[C@H]1C,?,.
C[C@@H]1CN([C@H](C)CO)S(=O)(=O)c2ccc(C#CC(C)(C)O)cc2O[C@@H]1CN(C)Cc1ccc(-c2ccccc2)cc1,?,.
CCC(=O)N1CCC2(CC1)CN(Cc1ccccc1Cl)[C@H](CO)c1c2c2ccc(OC)cc2n1C,9,4
COc1ccc(C[C@@H]2CCn3cc(nn3)COC[C@H](C(C)C)NC2=O)cc1,16,9
C[C@H](CO)N1C[C@H](C)[C@@H](CN(C)Cc2cncnc2)Oc2cc(-c3cncnc3)ccc2S1(=O)=O,21,16
C[C@@H]1CN([C@@H](C)CO)C(=O)c2cc(NC(=O)Nc3ccc(C(F)(F)F)cc3)ccc2O[C@@H]1CN(C)C,?,.
CCCC(=O)Nc1ccc2c(c1)C(=O)N(C)C[C@H](OC)[C@@H](C)CN(C)[C@H](C)CO2,6,12
CC(C)NC(=O)N1[C@@H](CO)[C@@H](c2ccccc2)C12CN(C(=O)c1ccccn1)C2,8,6
CCC(=O)N1CC2(C1)[C@@H](c1ccc(-c3cccc(C)c3)cc1)[C@@H](CO)N2S(C)(=O)=O,-11,-2
C[C@H]1CN([C@@H](C)CO)C(=O)c2cccc(NC(=O)NC3CCCCC3)c2O[C@@H]1CN(C)C(=O)Nc1ccc(C(F)(F)F)cc1,?,.
CC(C)NC(=O)Nc1cccc2c1O[C@@H](CN(C)Cc1ccncc1)[C@@H](C)CN([C@H](C)CO)C2=O,13,13
C/C=C/c1cnc2c(c1)C(=O)N([C@@H](C)CO)C[C@@H](C)[C@@H](CN(C)C(=O)c1cnccn1)O2,13,4
CO[C@@H]1CN(C)C(=O)c2ccc(NS(=O)(=O)c3ccccc3C)cc2OC[C@@H](C)N(C)C[C@H]1C,17,17
OC[C@@H]1[C@H](c2ccc(C3=CCCC3)cc2)[C@H]2CN(Cc3ccncc3)CCCCN12,16,5
O=C(Cc1ccncc1)N[C@H]1CC[C@@H](CCn2cc(-c3ccccc3F)nn2)O[C@@H]1CO,-16,-2
C[C@H]1CN([C@@H](C)CO)C(=O)c2cc(NC(=O)CCN3CCOCC3)ccc2O[C@H]1CN(C)Cc1ccc(C(F)(F)F)cc1,-7,-4
COc1ccc(C(=O)Nc2ccc3c(c2)C(=O)N(C)[C@H]2CC[C@H](CC(=O)NCC4CC4)O[C@@H]2CO3)cc1,-4,-4
O=C(C[C@@H]1CC[C@@H](NC(=O)Cc2cccnc2)[C@H](CO)O1)Nc1ccccc1,-2,-6
O=C(C[C@@H]1C[C@H]2c3cc(NS(=O)(=O)c4ccc(F)cc4)ccc3O[C@H]2[C@H](CO)O1)NCc1ccc(Oc2ccccc2)cc1,?,.
C[C@H](O)C#Cc1cnc2c(c1)C(=O)N([C@H](C)CO)C[C@H](C)[C@H](CN(C)Cc1cncnc1)O2,2,4
C[C@H](CO)N1C[C@H](C)[C@@H](CN(C)C(=O)Nc2ccccc2)Oc2ccc(NC(=O)CCN3CCOCC3)cc2CC1=O,37,6
COc1ccc2c3c([nH]c2c1)[C@@H](CO)N(CC1CC1)CC31CN(S(=O)(=O)c2cccc(F)c2)C1,15,12
COCC(=O)N(C[C@H]1N[C@H](CO)[C@H]1c1ccc(-c2ccccc2)cc1)C(C)C,-16,-7
C[C@@H]1CN([C@H](C)CO)C(=O)c2cc(C#CCN(C)C)cnc2O[C@H]1CN(C)Cc1ccccn1,17,15

# Full records from above. Order of values: Vaccinia stage | Vaccinia stage Venus
# Results for `O=C(C[C@@H]1C[C@H]2c3cc(NS(=O)(=O)c4ccc(F)cc4)ccc3O[C@H]2[C@H](CO)O1)NCc1ccc(Oc2ccccc2)cc1` → ? | .
# Results for `C[C@H](O)C#Cc1cnc2c(c1)C(=O)N([C@H](C)CO)C[C@H](C)[C@H](CN(C)Cc1cncnc1)O2` → 2 | 4
# Results for `C[C@@H]1CN([C@H](C)CO)C(=O)c2cc(C#CCN(C)C)cnc2O[C@H]1CN(C)Cc1ccccn1` → 17 | 15
# Results for `C[C@H]1CN([C@@H](C)CO)C(=O)c2cccc(NC(=O)NC3CCCCC3)c2O[C@@H]1CN(C)C(=O)Nc1ccc(C(F)(F)F)cc1` → ? | .
# Results for `CCC(=O)N1CC2(C1)[C@@H](c1ccc(-c3cccc(C)c3)cc1)[C@@H](CO)N2S(C)(=O)=O` → -11 | -2

# For reference, 2 of the compounds above.
SMILES,Vaccinia stage,Vaccinia stage Venus
O=C(C[C@@H]1CC[C@H](NC(=O)Nc2ccc(C(F)(F)F)cc2)[C@H](CO)O1)NCc1cc(F)cc(F)c1,?,.
CN(C)C(=O)[C@@H]1[C@@H](CO)[C@@H]2Cn3c(ccc(-c4ccccc4)c3=O)[C@H]1N2C(=O)C1CCCC1,28,17

# (cont.)
SMILES,Vaccinia stage,Vaccinia stage Venus
CC(C)NC(=O)N(C)C[C@@H]1Oc2ccc(NC(=O)CCCCCC(=O)Nc3ccccc3N)cc2C(=O)N([C@@H](C)CO)C[C@H]1C,3,4
CC(C)NC(=O)N(C)C[C@H]1OCCCC[C@H](C)Oc2ccc(NC(=O)c3ccccc3)cc2C(=O)N([C@H](C)CO)C[C@@H]1C,16,-1
C[C@@H]1CN([C@H](C)CO)S(=O)(=O)c2ccc(C#Cc3cccnc3)cc2O[C@H]1CN(C)CC1CCOCC1,-31,-17
C[C@H]1CN([C@@H](C)CO)C(=O)Cc2cc(NC(=O)Cc3cn(C)c4ccccc34)ccc2O[C@@H]1CN(C)Cc1ccc(Cl)c(Cl)c1,?,.
O=C(Cc1ccccn1)N1CC(=O)N2[C@H](C1)[C@H](c1ccc(C#CCC3CCCC3)cc1)[C@@H]2CO,?,.
O=C(Nc1ccc(Cl)cc1)N1C[C@@H]2[C@H](c3ccccc31)[C@H](CO)N2C(=O)c1cccnc1,-9,-8
C[C@@H]1CCCCO[C@@H](CN(C)Cc2ccc(C(F)(F)F)cc2)[C@H](C)CN([C@H](C)CO)C(=O)c2cc(N(C)C)ccc2O1,-24,-21
CCCNC(=O)N1CC(=O)N2[C@H](C1)[C@@H](c1ccc(-c3ccc(F)cc3)cc1)[C@@H]2CO,-30,-16
CCCN(C)C[C@@H]1Oc2cc(C3=CCCCC3)ccc2S(=O)(=O)N([C@H](C)CO)C[C@@H]1C,-19,-20
C[C@H]1CN([C@@H](C)CO)C(=O)c2cc(NS(=O)(=O)c3cn(C)cn3)ccc2O[C@@H]1CN(C)Cc1ccc(C(=O)O)cc1,9,-4
O=C(C[C@@H]1CC[C@@H](NC(=O)CN2CCOCC2)[C@H](CO)O1)NCCc1ccccc1,12,6
C[C@@H]1CN([C@@H](C)CO)C(=O)c2cccc(NS(=O)(=O)c3ccc(Cl)cc3)c2O[C@H]1CN(C)S(=O)(=O)c1ccc(Cl)cc1,1,0
COc1ccccc1-c1cn(CC[C@@H]2CC[C@@H](NC(=O)c3cnccn3)[C@@H](CO)O2)nn1,-7,-1
COc1ccc(NC(=O)Nc2ccc3c(c2)C(=O)N([C@@H](C)CO)C[C@H](C)[C@H](CN(C)C(=O)CCCN(C)C)OCCCC[C@H](C)O3)cc1,29,4
CNC[C@H]1Oc2ccc(NS(=O)(=O)c3ccccc3)cc2CC(=O)N([C@H](C)CO)C[C@H]1C,6,-3
CN(C)C(=O)c1cccc(-c2ccc3c(c2)[C@@H]2[C@@H](CCN2C(=O)C2CC2)[C@@H](CO)N3)c1,-2,4
C[C@@H]1CN([C@@H](C)CO)C(=O)Cc2cc(NC(=O)Cc3cn(C)c4ccccc34)ccc2O[C@H]1CN(C)C,0,-7
C[C@H](CO)N1C[C@H](C)[C@H](CN(C)S(C)(=O)=O)Oc2ncccc2C1=O,13,1
C/C=C/c1ccc([C@@H]2[C@@H](CO)N(C(=O)CN(C)C)C23CN(C(=O)C2CCOCC2)C3)cc1,-8,-10
CCS(=O)(=O)Nc1ccc2c(c1)C(=O)N(C)[C@@H]1CC[C@@H](CC(=O)NCc3ccccc3F)O[C@H]1CO2,5,16
COc1ccc2c3c([nH]c2c1)[C@H](CO)N(C(=O)c1cnccn1)CC31CN(S(C)(=O)=O)C1,22,11
CNC[C@@H]1OCCCC[C@H](C)Oc2ccc(NS(=O)(=O)c3ccc(C)cc3)cc2C(=O)N([C@H](C)CO)C[C@@H]1C,15,16
N#C[C@@H]1[C@H](c2ccccc2-c2ccccc2)[C@H](CO)N1C(=O)Cc1ccccc1,-8,-7
CCCNC(=O)N1C[C@@H](O)COC[C@H]2O[C@H](CC(=O)N3CCC(Cc4ccccc4)CC3)CC[C@@H]21,-12,-13
C[C@H](NC(=O)C[C@@H]1CC[C@H](NS(=O)(=O)c2cccc(F)c2)[C@@H](CO)O1)c1ccccc1,9,6
O=C(C[C@@H]1CC[C@@H]2[C@H](COC[C@@H](O)CN2S(=O)(=O)c2ccc(F)cc2)O1)N[C@@H]1CCN(Cc2ccccc2)C1,-12,-7
CC(C)c1cn(CC[C@@H]2CC[C@@H](NS(=O)(=O)c3ccc(F)cc3)[C@H](CO)O2)nn1,0,0
COc1cccc(S(=O)(=O)Nc2ccc3c(c2)C(=O)N(C)C[C@@H](OC)[C@@H](C)CN(Cc2ccccc2F)[C@H](C)CO3)c1,?,.
Cc1noc(C)c1NC(=O)Nc1ccc2c(c1)CC(=O)N([C@H](C)CO)C[C@H](C)[C@@H](CN(C)Cc1ccncc1)O2,17,16
COc1ccc(NC(=O)N(C)C[C@H]2OCc3cn(nn3)CCCC(=O)N([C@H](C)CO)C[C@@H]2C)cc1,33,9
C[C@H](CO)N1C[C@H](C)[C@H](CN(C)S(=O)(=O)c2ccccc2)Oc2ccc(NC(=O)CCCCCC(=O)Nc3ccccc3N)cc2C1=O,-20,-14
O=C(C[C@@H]1CC[C@@H](NC(=O)CCN2CCCCC2)[C@@H](CO)O1)Nc1ccc(-c2ccccc2)cc1,-35,-26
CCCNC(=O)C[C@H]1CC[C@@H]2[C@H](COc3ccc(NS(=O)(=O)CC)cc3C(=O)N2C)O1,1,0
C[C@H](CO)N1C[C@H](C)[C@H](CN(C)C(=O)Nc2ccc(F)cc2)Oc2ncc(C3=CCCCC3)cc2C1=O,-5,-8
C[C@H]1CN([C@@H](C)CO)C(=O)c2cccc(NC(=O)c3nc4ccccc4s3)c2O[C@@H]1CN(C)Cc1ccc(-c2ccccc2)cc1,-8,-10
N#C[C@H]1[C@@H](c2ccccc2-c2cccc(F)c2)[C@H](CO)N1C(=O)C1CC1,8,8
Cc1noc(C)c1NC(=O)Nc1ccc2c(c1)C(=O)N([C@H](C)CO)C[C@H](C)[C@H](CN(C)C(=O)Nc1c(C)noc1C)OCCCC[C@H](C)O2,11,9

# Reformatted with tabs: part of the list above
Compound	Vaccinia stage	Vaccinia stage Venus
CCCNC(=O)N1C[C@@H](O)COC[C@H]2O[C@H](CC(=O)N3CCC(Cc4ccccc4)CC3)CC[C@@H]21	-12	-13
N#C[C@H]1[C@@H](c2ccccc2-c2cccc(F)c2)[C@H](CO)N1C(=O)C1CC1	8	8
COc1ccc(NC(=O)N(C)C[C@H]2OCc3cn(nn3)CCCC(=O)N([C@H](C)CO)C[C@@H]2C)cc1	33	9
